TSHR agonist – agonists of human thyroid stimulating hormone receptor; P16473; HEK293-CNG-TSHR cells (CNG channel as cAMP sensor), membrane potential dye, cAMP; Potency, µM (doses to about 57.1 µM), without a hit: at the highest dose activation, most hits filed as activators; 73,000 tested, 0.48% active; AID 926; active = well fitted activation curve of enough size with the parental cells flat; inconclusive = any curve in the parental cells; inactive = parental cells flat and receptor cells flat or falling; also: potency is read from the fitted curve at half-maximal effect; % of control where 0% means no effect; weak receptor curves with flat parental cells got no call and are not listed
Target sequence (P16473 whole entry, looked up): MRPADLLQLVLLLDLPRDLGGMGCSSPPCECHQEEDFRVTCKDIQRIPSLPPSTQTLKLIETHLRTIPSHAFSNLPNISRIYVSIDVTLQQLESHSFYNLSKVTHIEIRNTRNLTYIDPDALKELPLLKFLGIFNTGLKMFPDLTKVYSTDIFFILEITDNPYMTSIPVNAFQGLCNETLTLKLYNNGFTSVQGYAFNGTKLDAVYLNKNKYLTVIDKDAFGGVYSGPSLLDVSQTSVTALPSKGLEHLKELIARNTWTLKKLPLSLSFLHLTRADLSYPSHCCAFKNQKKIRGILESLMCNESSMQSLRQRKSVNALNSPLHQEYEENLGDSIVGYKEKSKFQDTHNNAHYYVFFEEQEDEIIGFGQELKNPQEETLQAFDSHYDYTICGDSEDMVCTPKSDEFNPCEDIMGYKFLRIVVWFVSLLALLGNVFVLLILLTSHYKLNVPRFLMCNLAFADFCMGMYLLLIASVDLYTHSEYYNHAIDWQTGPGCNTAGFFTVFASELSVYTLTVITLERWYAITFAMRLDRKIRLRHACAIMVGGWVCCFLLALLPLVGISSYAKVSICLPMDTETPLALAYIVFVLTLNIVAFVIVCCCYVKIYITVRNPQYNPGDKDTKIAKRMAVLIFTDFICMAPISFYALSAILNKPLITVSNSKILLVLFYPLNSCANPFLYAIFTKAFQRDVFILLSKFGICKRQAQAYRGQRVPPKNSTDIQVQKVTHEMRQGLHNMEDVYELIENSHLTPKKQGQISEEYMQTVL
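HEK 293 cells stably expressing TSHR and a cAMP-gated CNG channel; parental CNG-only cells as counterscreen. Cells preloaded 60 min with membrane potential dye plus 100 uM RO 20-1724, then compound 30 min; fluorescence read at 590 nm.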
AID923 – qHTS Assay for Allosteric/Competitive Inhibitors of Caspase-1: Spectroscopic Profiling in AFC Spectral Region. 75,000 tested, 1.1% active. compound fluorescence, AFC spectral region (405/520 nm); almost no hit is shown here. Potency, µM (doses to about 57.5 µM), inactives show at the highest dose fluorescence increase, actives largely listed as activators; active = well fitted activation curve with a large enough effect; inconclusive = small, poorly fitted or top-dose-only effect;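 also: potency is read from the fitted curve at half-maximal effect; 0% is about no effect; scaled to a free AFC standard on each plate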
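Baseline compound fluorescence (AFC region, 405 nm ex/520 nm em) taken from the intercept of kinetic reads with 50 nM caspase-1 and 5 uM Ac-WEHD-AFC; normalized to an on-plate AFC standard curve; compounds titrated up to 57 uM.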
Resorufin fluor – resorufin region autofluorescence; Compound fluorescence, resorufin region 547/598 nm, buffer; stronger effect = higher value; max dye-equivalent concentration, M; 59,000 tested, 0.04% active; active = above 10 nM dye equivalent; inconclusive = 1 to 10 nM; inactive = 1 nM or less; a few of its hits are not listed in these tables; also: highest value over a series up to 38 µM
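Dye-equivalent concentration values derive from comparing each well's 547/598 nm fluorescence against resorufin standards included on every plate. Incubation was 15 min at room temperature in 100 mM Tris, pH 8.0.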
A647 fluor – compound autofluorescence in A647 spectral region. max dye-equivalent concentration, M. Compound fluorescence, A647 channel (570/671 nm), Tris buffer. 59,000 tested, under 10 active; active means above 1 µM dye equivalent; inconclusive means 0.1 to 1 µM; inactive means 0.1 µM or less;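 also: values scaled relative to a standard on each plate; highest value over a series up to 38 µM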
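Compound fluorescence was measured in 100 mM Tris buffer, pH 8.0, after 15 min at room temperature, using 570 nm excitation and 671 nm emission filters. Signal was normalized to a per-plate Alexa 647 standard curve and expressed as dye-equivalent concentration at each compound concentration.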
A488 fluor – compound autofluorescence in A488 spectral region | max dye equivalency, M | compound autofluorescence, A488 spectral region, dye equivalency; stronger effect = higher value | 59,000 tested, 0.1% active; active = above 10 nM dye equivalent; inconclusive = 1 to 10 nM; inactive = 1 nM or less; about half of its hits are not listed in these tables;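 also: highest value over a series up to 38 µM; compound alone in buffer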
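Compounds pin-transferred into 100 mM Tris buffer, pH 8.0, incubated 15 min at room temperature, then imaged with 480 nm excitation/540 nm emission filters. Fluorescence converted to Alexa 488 dye-equivalent concentration via an on-plate six-point A488 standard curve.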
Numbers without * were called inactive; i = inactive; u = inconclusive; x = no result given; [ ] = another dose, or the depositor's remark.

SMILES	TSHR agonist	AID923	Resorufin fluor	A647 fluor	A488 fluor
O=C1c2cccc([N+](=O)[O-])c2C(=O)N1c1ncn[nH]1	1.6%[11.4 µM]	3.0%[11.5 µM]	i	1e-09	i
COc1ccc2[nH]cc(CCNc3cc(-c4cccc(C#N)c4)ncn3)c2c1	-13.0%	8.5%	i	5.8e-09	i
Cc1sc(-n2c(C)cc(/C=N/n3cnnc3)c2C)c(C#N)c1C	x	x	i	8.7e-09	i
Cc1nn(-c2ccccc2)c(C)c1/C=N/N1CCN(Cc2ccccc2)CC1	4.1%	1.0%	x	x	x
O=C(CSc1nc2sc3c(c2c(=O)[nH]1)CCCC3)NCCO	1.4%	-2.3%	x	x	x
COc1ccc2[nH]cc(CCNc3ncncc3-c3ccccc3Cl)c2c1	u	1.8%	i	1.58e-08	i
CCOC(=O)COc1ccc(C(=O)c2ccccc2)c(O)c1	0.0%	-0.3%	i	5.2e-09	i
Cc1ccc2c(c1)C(=O)[C@]1(O)CCN(c3ccccc3)C1=N2	7.8%	u	x	x	x
CCc1ccccc1NC1=NCC(=O)N1Cc1ccc2c(c1)OCO2	u	6.4%	i	2.1e-09	i
CC1(C(=O)NC2CCCCCCC2)CCC(=O)N1Cc1ccco1 (stereo not drawn)	u	-0.6%	i	2.94e-08	i
CC1CN(Cc2nc3c(c(=O)n(C)c(=O)n3C)n2CC(O)CO)CC(C)O1 (stereo not drawn)	0.5%	-1.4%	i	4.15e-08	i
Cn1c(O)c(C=NCCCCCC(=O)O)c(=O)n(C)c1=O	10.1%	1.9%	x	x	x
CCOC(=O)C1CCCN(S(=O)(=O)c2cc(OCC(N)=O)c(C)cc2Cl)C1 (stereo not drawn)	-2.7%	-1.5%	i	2.27e-08	i
Cn1nnnc1SCc1nnc(-c2ccc(Cl)cc2)o1	-0.6%	0.0%	i	1e-09	i
O=C1CCCCCN1CSc1nc2ccccc2s1	u	-0.9%	i	3.33e-08	i
Cc1cccc(-n2c(SCC(=O)NCc3ccco3)nc3ccccc3c2=O)c1	u	0.1%	i	3.27e-08	i
O=c1c2c3c(sc2n2cnnc2n1C1CCCCC1)CCC3	x	x	i	1.7e-09	i
O=C(NC1CCCC1)C(c1ccc(N2CCOCC2)cc1)N(Cc1ccccc1)C(=O)c1ccco1 (stereo not drawn)	-5.4%	0.7%	i	6.6e-09	i
CCN(CC(=O)Nc1ccc(OC)c(OC)c1)S(=O)(=O)c1ccc(C)cc1	-1.6%	0.8%	i	4.5e-08	i
CCOC(=O)Cc1csc(-n2sc3ccccc3c2=O)n1	-3.2%	2.4%	i	4.01e-08	i
CCOC(=O)C1CCCN(S(=O)(=O)c2ccc(C)cc2)C1 (stereo not drawn)	-2.9%	2.2%	i	1.41e-08	i
O=C1c2ccccc2C(=O)N1CCc1nc2ccccc2c(=O)n1Cc1ccco1	13.3%	0.8%	x	x	x
Cn1c(=O)oc2cc(S(=O)(=O)Nc3ccc(Cl)cc3F)ccc21	u	-0.2%	x	x	x
CCOc1ccccc1NC(=O)c1cc(S(=O)(=O)N2CCC3(CC2)OCCO3)ccc1F	u	-0.3%	i	1e-09	i
COC(=O)Cn1c(CN(Cc2ccccc2)Cc2ccccc2)nc2c1c(=O)[nH]c(=O)n2C	17.6%	-0.3%	i	1.06e-08	i
c1cncc(CNc2nc(-c3ccoc3)nc3ccccc23)c1	14.4%	1.7%	i	3.08e-08	i
Cn1c(C(=O)N2CCN(C(=O)c3ccco3)CC2)cc2c(=O)n(C)c3ccccc3c21	-0.7%	4.3%	x	x	x
O=C(O)C12CC3(C(=O)O)CC(C(=O)O)(CC(C(=O)O)(C1)C3=O)C2=O	-3.7%[11.4 µM]	-0.5%[11.5 µM]	i	4.7e-09	i
COc1ccc(-n2c(C)cc(=O)c3c2CC(C)(C)CC3=O)cc1	0.8%	0.0%	i	1e-09	i
Cc1ccc(-n2nnnc2SCC(=O)Nc2cccc(NC(=O)c3ccco3)c2)cc1C	12.6%	1.9%	i	1e-09	i
COc1ccc(C(c2sc3nc(C)nn3c2O)N2CCC(O)CC2)cc1OC (stereo not drawn)	-3.6%	-4.4%	x	x	x
CC(C)C1Nc2ccc(S(N)(=O)=O)cc2C2C=CCC21 (stereo not drawn)	-9.3%	13.6%	i	1e-09	i
CN(C)S(=O)(=O)c1ccc2c(c1)C(CC(=O)O)OC2=O (stereo not drawn)	u	1.7%	i	3.35e-08	i
O=C1c2ccccc2[C@@H]([C@@H]2c3ccccc3C(=O)c3cc(Br)ccc32)c2ccc(Br)cc21	-4.4%[11.4 µM]	3.4%[11.5 µM]	i	1e-09	i
CS(=O)(=O)N(CC(=O)N1CCN(c2ccccc2F)CC1)c1ccc2c(c1)OCCO2	-2.0%	1.1%	i	2.43e-08	i
COc1cc(NC(=O)c2ccc(NS(=O)(=O)c3c(C)noc3C)cc2)cc(OC)c1	-6.6%	-1.6%	i	2.7e-09	i
CCCCOC(=O)c1ccc(O)cc1	u	-0.7%	i	3.5e-09	i
COc1ccccc1CNc1nc(-c2ccc(N(C)C)cc2)nc2ccccc12	-6.0%	4.8%	i	1.4e-09	i
COc1cccc(OCC(=O)Nc2c(C(=O)Nc3ccc(OC)cc3OC)oc3ccccc23)c1	1.5%	0.0%	i	2.81e-08	i
CC(C)Sc1nc2sc3c(c2c2nnc(SCC(=O)NCc4ccco4)n12)CCCC3	u	-0.8%	i	7.3e-09	i
CC(C)(O)c1cn(-c2nonc2N)nn1	0.8%	0.7%	i	3.23e-08	i
Cc1ccc(Cn2nnc3c(=O)n(CC(=O)N4CCCc5ccccc54)cnc32)cc1	u	-0.1%	i	3.79e-08	i
COc1cc2c(cc1OC)C(=O)Cc1ccc3c(c1CN(C)CC2)OCO3	2.2%	-2.2%	i	1e-09	i
CCCCN1c2ccccc2N(CCCO)c2cc(C)nnc21	0.1%	-1.1%	i	2.01e-08	i
COC(=O)c1c(NS(=O)(=O)c2cccs2)sc2c1CCCC2	-0.3%	0.1%	i	1e-09	i
COc1ccc(NC(=O)NC2(C(=O)N3CCCCCC3)CCCCC2)cc1	-0.7%	-0.3%	i	1e-09	i
CC(C)C(=O)N1CCN(c2ccccc2N)CC1	-3.8%	0.7%	x	x	x
O=C(NC1CCN(C(=O)N2CCOCC2)CC1)c1ccccc1	-2.6%	0.1%	i	1e-09	i
COc1ccccc1N1CCSC1C(N)=O (stereo not drawn)	3.5%[11.4 µM]	3.2%	i	1.7e-09	i
N#Cc1ccc(NC(=O)C2CC(c3ccc(F)cc3)=NO2)cc1 (stereo not drawn)	9.7%	-0.1%	i	1.4e-09	i
CCOC(=O)C1CCN(C(c2cc3ccc(C)c(C)c3[nH]c2=O)c2nnnn2C2CCCCC2)CC1 (stereo not drawn)	10.9%	0.9%	i	6.3e-09	i
CCCCCCCC(=O)O[C@H](CC(=O)O)C[N+](C)(C)C	3.9%	-1.2%	x	x	x
CC(=O)N/C(=N/c1nc(C)cc(C)n1)Nc1ccc(NC(C)=O)cc1	x	x	i	6.49e-08	i
COCCSc1nnc(NC(=O)CSc2ccccc2)s1	-9.2%	1.4%	i	1e-09	i
COc1ccccc1CN1CCCC2(CCN(C(=O)c3cnccn3)CC2)C1	1.6%	2.0%	i	1e-09	i
CCOc1ccc(OCC)c(S(=O)(=O)N2CCCCC2)c1	u	-1.2%	i	2.14e-08	i
Cc1cccc2nc(CSCc3ccco3)cn12	0.9%	4.0%	i	5.4e-09	i
CCOC(=O)C1=C(C)OC(N)=C(C(=O)OCC)C1c1cccnc1 (stereo not drawn)	x	-0.7%	i	1.1e-08	i
COc1ccc(-c2csc(N(CC3CCCO3)C(=O)c3ccco3)n2)cc1 (stereo not drawn)	u	0.2%	i	1e-09	i
CC(=O)Nc1nc(C=C(Cl)Cl)cs1	-7.0%	1.5%	i	1e-09	i
Next section.
SMILES	TSHR agonist	AID923	Resorufin fluor	A647 fluor	A488 fluor
CCCOc1cc(CN2CCCCC2)cc(C(C)=O)c1	x	x	i	6.22e-08	i
COc1ccc(NC(=O)C2CCN(S(=O)(=O)c3cccc4cccnc34)CC2)cc1OC	7.5%	-0.9%	x	x	x
CC(Sc1nnnn1C)C(=O)Nc1ccc(N2CCOCC2)cc1 (stereo not drawn)	-2.2%	-0.4%	i	3.9e-09	i
O=C1c2ccccc2C(Nc2ccc3c(c2)OCCO3)N1Cc1ccco1 (stereo not drawn)	u	-0.1%	x	x	x
Cc1noc(C)c1C(=O)N1CCC2(CCCN(Cc3ccccc3)C2)CC1	0.5%	0.2%	i	1.87e-08	i
CCC(=O)Oc1ccc(C/C(=N\O)c2ccc(O)cc2O)o1	8.3%	1.1%	i	4.9e-09	i
COc1cc(S(=O)(=O)N2CCN(c3ccccc3F)CC2)c(OC)cc1Cl	-51.4%[inhibitor]	-0.7%	i	1.5e-09	i
C=CCn1c(SCc2nc(N)nc(N3CCCCC3)n2)nnc1-c1ccco1	5.3%[11.4 µM]	-0.5%	i	1e-09	i
Cc1ccc(OCC(=O)NCc2ccccn2)c(Br)c1	13.5%	-1.0%	x	x	x
Cc1ccn2cc(CNS(=O)(=O)c3ccc4c(c3)OCCO4)nc2c1	2.7%	1.0%	x	x	x
Cc1cc(N2CCC(C(=O)N3CCN(c4cccc(C)c4C)CC3)CC2)n2ncnc2n1	22.1%	-0.8%	i	5e-09	i
Cc1cc(NC(=O)Cn2c(=O)c3c(ncn3CC(C)C)n(Cc3ccccc3)c2=O)no1	-0.3%	-1.3%	i	1.84e-08	i
Cc1ccccc1NC(=O)NCCN1C(=O)C2C3C=CC(C3)C2C1=O (stereo not drawn)	-0.4%	0.1%	x	x	x
CC(=O)c1c(C)[nH]c(C(=O)NC2CCCCC2)c1C	-8.2%	2.5%	i	5.1e-09	i
FC(F)(F)c1cc(CN2CC[C@@]3(CCCNC3)C2)cc(C(F)(F)F)c1	-5.1%	3.4%	i	6.7e-09	i

Random excerpt: 2 compounds from above.
SMILES	TSHR agonist	AID923	Resorufin fluor	A647 fluor	A488 fluor
C=CCn1c(SCc2nc(N)nc(N3CCCCC3)n2)nnc1-c1ccco1	5.3%[11.4 µM]	-0.5%	i	1e-09	i
FC(F)(F)c1cc(CN2CC[C@@]3(CCCNC3)C2)cc(C(F)(F)F)c1	-5.1%	3.4%	i	6.7e-09	i

(listing goes on)
SMILES	TSHR agonist	AID923	Resorufin fluor	A647 fluor	A488 fluor
Cc1ccccc1-c1nc(CS(=O)CC(=O)NCCN2CCN(Cc3ccccc3)CC2)c(C)o1 (stereo not drawn)	u	0.2%	i	8.9e-09	i
O=C(O)CC1(c2ccccc2)C(=O)c2ccccc2C1=O	-8.7%	1.1%	i	2.72e-08	i
CCN(CC)CCCNC(=O)C1CCC(=O)N(c2ccc(OC)cc2)C1c1ccc(F)cc1 (stereo not drawn)	u	0.9%	i	2.98e-08	i
COC(=O)C1=C(C)C(c2cccs2)NC(=O)N1C (stereo not drawn)	-0.4%[11.4 µM]	0.6%	i	1e-09	i
Cc1ccc(S(=O)(=O)NCCN2CCOCC2)cc1C	2.1%	2.1%	i	2.39e-08	i
Cc1ccc(C2SCC(=O)N2Cc2cn3ccsc3n2)o1 (stereo not drawn)	4.5%	0.7%	i	3.43e-08	i
CN(C)c1nc(Oc2ccc(=O)[nH]n2)nc(N2CCCCC2)n1	3.7%	-1.5%	i	7.6e-08	i

Only Resorufin fluor, A647 fluor and AID923 (5 entries from above):
structure	Resorufin fluor	A647 fluor	AID923
COc1ccccc1CN1CCCC2(CCN(C(=O)c3cnccn3)CC2)C1	i	1e-09	2.0%
Cc1ccc(Cn2nnc3c(=O)n(CC(=O)N4CCCc5ccccc54)cnc32)cc1	i	3.79e-08	-0.1%
COc1cccc(OCC(=O)Nc2c(C(=O)Nc3ccc(OC)cc3OC)oc3ccccc23)c1	i	2.81e-08	0.0%
CC(=O)N/C(=N/c1nc(C)cc(C)n1)Nc1ccc(NC(C)=O)cc1	i	6.49e-08	x
CCCCCCCC(=O)O[C@H](CC(=O)O)C[N+](C)(C)C	x	x	-1.2%

Assay outcomes from PubChem BioAssay.

Not all compounds are listed. The share of hits here may be higher or lower than overall.
